# 2A StopGo – lowers the luciferase signal of an FMDV 2A StopGo reporter | human cells with a luciferase reporter of 2A StopGo recoding; control for the full effect not named in the record | Potency, µM (doses to about 57.9 µM), for inactives: top-dose signal change, negative = less light | 410,000 compounds, 1.2% hits | AID 1159524; active = well fitted falling curve with a large enough effect; inconclusive = small, poorly fitted or top-dose-only effect; inactive = no such curve, though single readings can be large or run the other way; tested in HEK293T cells; note: % is set by controls: 0 for no effect and ±100 for the full control effect; nearly all actives have a fitted effect of over 45% in size; luciferase light after 4 h
# MARV entry inh – Marburg virus entry inhibition; Potency, µM (doses to about 37.8 µM), without a hit: at the highest dose activity change, negative = inhibition, actives largely listed as inhibitors; 300,000 compounds, 1.8% hits; AID 540276; Marburg virus pseudotyped entry inhibition, cell reporter; control for the full effect not named in the record; about a third of the inactives were read at about 46 µM; active = well fitted inhibition curve with a large enough effect; inconclusive = small, poorly fitted or top-dose-only effect, or effect the other way; inactive = flat fitted curve, though single readings scatter; tested in HEK293 cells; about a fifth of its hits are not listed in these tables; note: % is set by controls: 0 for no effect and ±100 for the full control effect; luciferase read-out
# NS1 inh – blocks influenza NS1 protein function; Potency, µM (series often up to 46.1 µM), for inactives: top-dose activity, positive = more growth; S. cerevisiae slowed by influenza A NS1, growth recovery by OD600; 270,000 compounds, 0.4% hits; note: actives are rising curves; nearly all actives have a fitted effect of over 50% in size
#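 S. cerevisiae expressing influenza A NS1, grown in glucose, washed, then diluted 1:100 into pH 6.0 -URA galactose medium with 23 nl compound. Growth recovery read as OD600; NS1-free strain serves as control.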
# SARS PLP yeast – inhibitors of SARS-CoV papain-like protease in yeast; S. cerevisiae expressing SARS-CoV PLpro, growth rescue; control for the full effect not named in the record; Potency, µM (doses to about 32.9 µM), for the others: at the highest dose activity, positive = growth rescue; 330,000 compounds, 0.19% hits; note: 0% is about no effect; nearly all actives have a fitted effect of over 55% in size; growth read by luminescence after 48 h
# Cruzain inh Det – blocks cruzain activity in presence of Triton detergent | AID 1478 | Potency, µM, inactives show max response, negative = inhibition, actives largely listed as inhibitors | purified cruzain, Z-FR-AMC fluorescence, 0.01% Triton | P25779 | 200,000 compounds, 0.43% hits; active = well fitted curve in the direction sought with a large enough effect; inconclusive = small, poorly fitted or top-dose-only effect, or another doubt; inactive = no such curve, though single readings can be large; an effect the other way counts as inactive or inconclusive;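 note: plate controls were neutral wells for no effect and buffer without enzyme for full effect; nearly all actives have a fitted effect of over 40% in size; top concentration of the series not given in the record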
# Target sequence (P25779 123-467 limits assumed): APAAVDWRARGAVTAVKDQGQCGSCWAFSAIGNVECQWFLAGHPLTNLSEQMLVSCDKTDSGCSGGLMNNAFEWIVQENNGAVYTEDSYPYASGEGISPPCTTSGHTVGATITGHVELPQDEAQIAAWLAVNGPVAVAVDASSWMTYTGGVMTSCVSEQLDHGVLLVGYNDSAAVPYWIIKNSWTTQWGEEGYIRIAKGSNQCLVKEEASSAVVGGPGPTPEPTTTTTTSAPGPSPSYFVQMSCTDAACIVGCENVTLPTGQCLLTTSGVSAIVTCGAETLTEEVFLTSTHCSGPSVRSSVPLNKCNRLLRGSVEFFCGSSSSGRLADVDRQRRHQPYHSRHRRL
#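 Detergent-containing arm of a paired screen for aggregation-based inhibition: 0.01% Triton X-100 present. Cruzain at 1.5 nM cleaved 2 uM Z-FR-AMC at pH 5.5 with 5 mM DTT; AMC fluorescence gain over 60 s measured activity.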
# RE007 growth inh – less growth of the S. pombe RE007 Vpr strain; S. pombe RE007 Vpr strain, BacTiter-Glo ATP luminescence, 24 h; control for the full effect not named in the record; Potency, µM (titrated, usually from 92.2 µM), for inactives: at the top dose activity change, negative = less growth; 360,000 compounds, 0.21% hits; active = well fitted falling curve with a large enough effect; inconclusive = small, poorly fitted or top-dose-only effect; inactive = no such curve, though single readings can be large or run the other way;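 note: % is set by controls: 0 for no effect and ±100 for the full control effect; nearly all actives have a fitted effect of over 50% in size; the assay follows cell death caused by Vpr and the record does not say whether a fall means rescue or toxicity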
#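 Fission yeast RE007 carrying one integrated HIV-1 vpr copy, seeded at OD 0.01 in PMG+AL medium with 23 nL pinned compound. Grown 24 h at 30 degrees; viability read by BacTiter-Glo luminescence after 5 min.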
# Lassa entry inh – blocks Lassa virus binding to or entry into cells; Lassa virus pseudotype entry inhibition, cell reporter; control for the full effect not named in the record; 300,000 compounds, 1.2% hits; Potency, µM (titrated, usually from 37.9 µM), without a hit: at the highest dose activity change, negative = inhibition, actives largely listed as inhibitors; active means well fitted inhibition curve with a large enough effect; inconclusive means small, poorly fitted or top-dose-only effect, or effect the other way; inactive means flat fitted curve, though single readings scatter; tested in HEK293 cells; note: % is set by controls: 0 for no effect and ±100 for the full control effect; nearly all actives have a fitted effect of over 50% in size; luciferase read-out
# Cruzain noTriton – blocks cruzain activity in detergent-free assay; P25779; purified cruzain, Z-FR-AMC fluorescence, no detergent; Potency, µM, inactives show max response, negative = inhibition, hits mostly inhibitors; 200,000 compounds, 2.3% hits; AID 1476; active = well fitted curve in the direction sought with a large enough effect; inconclusive = small, poorly fitted or top-dose-only effect, or another doubt; inactive = no such curve, though single readings can be large; an effect the other way counts as inactive or inconclusive;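 note: plate controls were enzyme without inhibitor for no effect and buffer without enzyme for full effect; nearly all actives have a fitted effect of over 40% in size; top concentration of the series not given in the record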
#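 Purified cruzain at 1.5 nM, pre-incubated 15 min with compound at room temperature in 100 mM sodium acetate pH 5.5, 5 mM DTT, 0.00005% Triton X-100. Reaction started with 2 uM Z-FR-AMC; AMC fluorescence increase over 60 s gives rate.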
# * = called active by the depositor; ? = inconclusive; / = no result given; [ ] = dose if it differs, or a comment. Unless noted, calls come from the whole dose curve; as a rule, active means well fitted rising curve with a large enough effect; inconclusive means small, poorly fitted or top-dose-only effect; inactive means no such curve, though single readings can be large or run the other way. Potency is the fitted concentration of half-maximal effect.
# Assay codes – A = 2A StopGo; B = MARV entry inh; C = NS1 inh; D = SARS PLP yeast; E = Cruzain inh Det; F = RE007 growth inh; G = Lassa entry inh; H = Cruzain noTriton
> CCCCC(CCC(=O)O)(C(=O)OCC)c1csc(Nc2ccccc2)n1 (stereo not given)
  A: -20% | B: 6%[46.1 µM] | C: 3% | D: 1% | E: / | F: -10% | G: 2% | H: /

> COc1ccc(/C=C/C(=O)Nc2c(C(=O)O)[nH]c3ccccc23)cc1OC
  A: -4% | B: / | C: 0% | D: 0% | E: / | F: 2% | G: / | H: /

> CC1CCCCC1NC(=O)CNC(=O)c1ccco1 (stereo not given)
  A: 0% | B: ? | C: / | D: / | E: / | F: -14% | G: 10% | H: /

> COc1ccc(/C=N/n2cncn2)cc1Cn1nc(C)c([N+](=O)[O-])c1C
  A: ? | B: 3% | C: -7% | D: 4% | E: / | F: 2% | G: 10% | H: /

> Cc1[nH]c2ccccc2c1N=Nc1ccccc1C(=O)O
  A: -5% | B: 11% | C: 4.5µM* | D: 17% | E: -8.6% | F: -5% | G: ? | H: 2%

> Cc1ccnc(NC(c2ccccc2)c2ccc3cccnc3c2O)c1 (stereo not given)
  A: -13% | B: ? | C: / | D: / | E: / | F: ? | G: ? | H: /

> Cc1oc(-c2ccccc2Cl)nc1CN1CCCN(C(=O)c2ccco2)CC1
  A: -10% | B: / | C: 1% | D: -1% | E: / | F: -20% | G: / | H: /

> CN(CC(=O)Nc1cccc(F)c1)C(=O)c1ccc(-n2cncn2)c([N+](=O)[O-])c1
  A: -6% | B: -17% | C: / | D: / | E: / | F: 0% | G: ? | H: /

> CCC1CCc2c(sc(NC(=O)c3cnccn3)c2C(N)=O)C1 (stereo not given)
  A: 7% | B: ? | C: -13% | D: 2% | E: / | F: -9% | G: 20%[46.1 µM] | H: /

> O=C(NCCN1CCCC1)c1ccc(Cn2c(=S)[nH]c3ccc(Br)cc3c2=O)cc1
  A: 26% | B: ? | C: / | D: -3% | E: / | F: -20% | G: 6% | H: /

> CN(C)CCCN(C(=O)c1ccco1)c1nc2ccc(Cl)cc2s1
  A: -17% | B: ? | C: -2% | D: -1% | E: / | F: -6% | G: ? | H: /

> COc1cc(NC(=O)C/C(C)=N/NC(=O)c2cccc(O)c2)c(OC)cc1Cl
  A: -5% | B: 0% | C: 12% | D: -3% | E: -2.6% | F: -17% | G: 7% | H: 0%

> COc1ccc(-c2nn(-c3ccccc3)cc2C(=O)Nc2ccc(C(=O)O)cc2)cc1OC
  A: 23% | B: -4%[46.1 µM] | C: 14% | D: 1% | E: / | F: -16% | G: / | H: /

> Cn1c(=O)c2c(nc3n2CC(O)CN3c2ccccc2)n(C)c1=O (stereo not given)
  A: -6% | B: 12% | C: / | D: / | E: / | F: -9% | G: 6% | H: /

> CCOC(=O)c1c(CN2CCN(CC#N)CC2)n(C)c2cc(Br)c(OC)cc12
  A: -24% | B: ? | C: 4% | D: 0% | E: / | F: -4% | G: ? | H: /

> O=C(C1CC1)N1CCc2cc(Br)cc(S(=O)(=O)N3CCN(c4cccc(Cl)c4)CC3)c21
  A: 3% | B: ? | C: / | D: / | E: -0.3% | F: / | G: 23%[46.1 µM] | H: 2%

> O=C(CN1C(=O)NC2(CCCC2)C1=O)OCc1ccc(Br)cc1
  A: -25% | B: 5%[46.1 µM] | C: / | D: 0% | E: / | F: 15% | G: 17% | H: /

> COc1cccc(-c2nn(C)c3sc(C(=O)N4CCN(c5ccccc5)CC4)cc23)c1
  A: -13% | B: ? | C: ? | D: -4% | E: 0.1% | F: 12% | G: ? | H: 29%

> NC(=O)CSc1nc2cc3c(cc2c(=O)n1CCCCCC(=O)NCc1ccc2c(c1)OCO2)OCO3
  A: -14% | B: / | C: / | D: / | E: 1.4% | F: / | G: -1%[46.1 µM] | H: 11%

> COc1cc(/C=C2/SC(=S)N(Cc3ccccc3)C2=O)ccc1OCC(=O)O
  A: ? | B: ? | C: ? | D: 27% | E: / | F: 9% | G: -22%[46.1 µM] | H: /

> CC(C)Oc1ccc(C(=O)OC(C)C(=O)NC2CCCCC2C)cc1 (stereo not given)
  A: ? | B: -12%[46.1 µM] | C: 10% | D: / | E: / | F: -1% | G: ? | H: /

> CC(C)Oc1ccc(CNC(=O)C(C)n2ccc3cc(S(=O)(=O)N4CCCCCC4)ccc32)cc1 (stereo not given)
  A: 15% | B: / | C: / | D: / | E: -4.8% | F: / | G: -22%[46.1 µM] | H: -12%

> CC1CCCCC1NC(=O)COC(=O)c1c2c(nc3ccccc13)/C(=C/c1ccco1)CC2 (stereo not given)
  A: 21% | B: -2% | C: 24% | D: -4% | E: -24% | F: -8% | G: 10% | H: -22%

> COc1ccc(NC(=O)CSc2ccccc2)c([N+](=O)[O-])c1
  A: 20% | B: ? | C: / | D: 0% | E: / | F: 19% | G: -8%[46.1 µM] | H: /

> Cc1cc(N=Cc2c(O)n(-c3cccc(Cl)c3)c(=O)c3ccccc23)no1
  A: -18% | B: -25% | C: 17% | D: 17% | E: -4.4% | F: -2% | G: ? | H: -4%

# The closing 3 compounds of the section before lead into the next.
# Assay codes – A = 2A StopGo; B = MARV entry inh; C = NS1 inh; D = SARS PLP yeast; E = Cruzain inh Det; F = RE007 growth inh; G = Lassa entry inh; H = Cruzain noTriton
> CC1CCCCC1NC(=O)COC(=O)c1c2c(nc3ccccc13)/C(=C/c1ccco1)CC2 (stereo not given)
  A: 21% | B: -2% | C: 24% | D: -4% | E: -24% | F: -8% | G: 10% | H: -22%

> COc1ccc(NC(=O)CSc2ccccc2)c([N+](=O)[O-])c1
  A: 20% | B: ? | C: / | D: 0% | E: / | F: 19% | G: -8%[46.1 µM] | H: /

> Cc1cc(N=Cc2c(O)n(-c3cccc(Cl)c3)c(=O)c3ccccc23)no1
  A: -18% | B: -25% | C: 17% | D: 17% | E: -4.4% | F: -2% | G: ? | H: -4%

> CC(=O)c1cccc(NC(=S)NC(=O)CC(C)(C)C)c1
  A: 2% | B: 25% | C: -2% | D: 12% | E: 0.3% | F: 5% | G: 24% | H: -5%

> COc1ccc(C2=NO[C@@H]3C(=O)N(c4cccc(C)c4C)C(=O)[C@H]23)cc1OC
  A: 8% | B: 5% | C: -47% | D: 1% | E: 1.3% | F: 9% | G: 9% | H: -7%

> Cc1cc(/C=C(\C#N)C(=O)NCc2cccs2)c(C)n1-c1ccc([N+](=O)[O-])cc1
  A: 10% | B: ? | C: 0% | D: -15% | E: -5.5% | F: 1% | G: 0% | H: ?

> O=C1CC(c2ccco2)CC2=C1C=Nc1ccccc1N2 (stereo not given)
  A: ? | B: -16% | C: -31% | D: -30% | E: -2.0% | F: -2% | G: ? | H: -9%

> CC(C)CCNC(=O)Cn1c2c(c(-c3ccccc3Cl)cc1=O)CCC2
  A: -21% | B: / | C: 0% | D: -8% | E: -2.5% | F: 8% | G: / | H: 0%

> O=C(/C=C/c1cc2ccccc2o1)c1ccccc1O
  A: 18% | B: 17%[46.1 µM] | C: 0% | D: 0% | E: / | F: 9% | G: 30% | H: /

> CC1CN(C(=O)COC(=O)c2c(Cl)cccc2Cl)CC(C)O1 (stereo not given)
  A: 1% | B: 7%[46.1 µM] | C: -6% | D: 0% | E: / | F: 5% | G: 5%[46.1 µM] | H: /

> COc1ccc(-n2nc(C(=O)NCC(=O)N3CCCC3)c3ccccc3c2=O)cc1Cl
  A: 13% | B: ? | C: -10% | D: 1% | E: / | F: -1% | G: 0%[46.1 µM] | H: /

> O=C(CCS(=O)(=O)c1ccc(Cl)cc1)OCC(=O)N1CCCCC1
  A: -5% | B: 0% | C: -3% | D: -2% | E: 2.4% | F: 22% | G: 6% | H: 5%

> CC(=O)c1ccc(S(=O)(=O)NCCc2csc(-c3cccnc3)n2)cc1
  A: 17% | B: -9% | C: 0% | D: -9% | E: / | F: -13% | G: 1% | H: /

> Cc1cccc(C(=O)NCCc2nnc(SCC(=O)Nc3nc(C)cs3)n2C)c1
  A: 2% | B: 8% | C: -1% | D: 0% | E: 1.5% | F: -15% | G: 2% | H: 1%

> CCC1(C)Cc2c(sc3nc(SC)nc(N)c23)CO1 (stereo not given)
  A: -20% | B: -3% | C: -8% | D: 10% | E: -0.3% | F: -1% | G: -19% | H: -1%

> COc1ccccc1NC(=O)CN1CCN(C(=O)C2CCCO2)CC1 (stereo not given)
  A: -15% | B: 11% | C: 0% | D: 8% | E: / | F: 4% | G: 1% | H: /

> COC(=O)c1cc(NC(=O)c2ccccc2)c(=O)oc1/C=C/Nc1ccc(Oc2ccccc2)cc1
  A: -19% | B: -8%[46.1 µM] | C: / | D: 1% | E: / | F: 4% | G: 5% | H: /

> COCCn1c(C)cc(C(=O)COC(=O)c2n[nH]c3ccccc23)c1C
  A: 11µM* | B: ? | C: -18% | D: ? | E: 1.0% | F: -15% | G: ? | H: ?

> COc1ccc(Cl)cc1N(C)C(=O)Cc1noc2ccc(C)cc12
  A: 1% | B: / | C: / | D: / | E: -18% | F: / | G: -6%[46.1 µM] | H: -8%

> COc1ccccc1NC(=S)NCC1CCC(CNC(=S)Nc2ccccc2OC)CC1 (stereo not given)
  A: 1% | B: 6%[46.1 µM] | C: 3% | D: 0% | E: / | F: -2% | G: 13%[46.1 µM] | H: /

> CC(=Nc1cccc(C)c1)c1sc2ccccc2c1O
  A: / | B: -15% | C: 0% | D: -22% | E: -9.9% | F: -7% | G: -4% | H: -5%

> Cc1ccc2nc(SCC(=O)Nc3cc(C(C)(C)C)nn3-c3ccccc3)[nH]c2c1
  A: -27% | B: -3% | C: -20% | D: 8% | E: -11% | F: -3% | G: -9% | H: 2%

> O=C(N1CCCC1)N1CCN(c2ncnc3c(-c4ccc(Cl)cc4)nsc23)CC1
  A: / | B: -2% | C: 3% | D: 2% | E: -0.1% | F: / | G: / | H: ?

> O=C(O)c1ccn(Cn2cnc3ccccc32)n1
  A: 0% | B: 14%[46.1 µM] | C: ? | D: 7% | E: 8.1% | F: -1% | G: 5% | H: 1%
